Vaccinia stage – blocks a specific stage of Vaccinia orthopoxvirus infection; Vaccinia-infected cells, mCherry/Venus stage reporter fluorescence; stronger effect = lower value; some inactives read as strong as hits; activity change (mCherry), % (concentration not given with the values); hit rate 0.01% among 89,000;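 active means mCherry past -33% and 40 or more points under the early reporter, replicates agreeing; inconclusive means past -33% without that gap or agreement; tested in A549 cells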;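 further: scaled between vehicle wells and reference inhibitor wells; 23 nL library stock went into each well; one replicate is shown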
Vaccinia stage Venus – second read-out of Vaccinia stage, no call of its own (marks repeat the call); activity change (Venus), %; measured here: Venus reporter, other viral stage;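 negative = less Venus signal; first of two replicates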
Numbers without * were called inactive; ? = inconclusive; / = not tested or not shown; & = joins results of further samples. An excerpt; rates above refer to the full screens.

Screens in order – Vaccinia stage | Vaccinia stage Venus
CO[C@H]1CN(C)C(=O)c2cc(NC(=O)Cc3ccccc3)ccc2OC[C@H](C)N(C)C[C@H]1C
  2.8 | 2.0
O=C(C[C@@H]1C=C[C@@H](NC(=O)c2ccccc2)[C@@H](CO)O1)NCCc1ccncc1
  -3.3 | -5.1
CO[C@H]1CN(C)C(=O)c2cc(NC(=O)Nc3ccccc3F)ccc2OC[C@@H](C)N(C(C)=O)C[C@H]1C
  7.8 | 13.1
CNC[C@@H]1Oc2c(NS(=O)(=O)c3ccc(Cl)cc3)cccc2C(=O)N([C@@H](C)CO)C[C@H]1C
  1.9 | 2.2
C[C@@H]1CN([C@@H](C)CO)C(=O)c2cc(NS(C)(=O)=O)ccc2O[C@@H](C)CCCCO[C@@H]1CN(C)Cc1ccc(C(=O)O)cc1
  24.1 | 8.7
C[C@@H]1CN([C@H](C)CO)C(=O)c2cccc(NC(=O)Nc3ccccc3)c2O[C@H]1CN(C)Cc1ccc(Oc2ccccc2)cc1
  -4.8 | -4.2
C[C@H](CO)N1C[C@H](C)[C@H](CN(C)S(=O)(=O)c2cccs2)OCCCC[C@H](C)Oc2ccc(NC(=O)Nc3ccccc3)cc2C1=O
  -8.5 | -0.2
O=C(C[C@@H]1C=C[C@@H](NC(=O)c2ccc(F)cc2)[C@@H](CO)O1)NCCc1ccncc1
  -6.6 | 0.2
CCC(=O)N1C[C@@H]2[C@H](c3ccccc31)[C@@H](CO)N2C(=O)Nc1ccccc1F
  4.2 | -2.4
O=C(C[C@@H]1C=C[C@H](NC(=O)Nc2ccc3c(c2)OCO3)[C@H](CO)O1)NCc1ccc2c(c1)OCO2
  10.2 | -0.5
C[C@H](CO)N1C[C@H](C)[C@H](CN(C)C(=O)NC2CCCCC2)Oc2c(NC(=O)c3ccncc3)cccc2C1=O
  19.9 | 17.7
COc1cccc(C(=O)Nc2ccc3c(c2)C(=O)N(C)[C@H]2CC[C@H](CC(=O)NCC4CC4)O[C@H]2CO3)c1
  7.1 | 6.7
CO[C@@H]1CN(C)C(=O)c2cc(NS(=O)(=O)c3ccc(Cl)cc3)ccc2OC[C@@H](C)N(C)C[C@@H]1C
  4.7 | 0.4
N#C[C@H]1[C@H](c2ccc(C#CC3CCCCC3)cc2)[C@H](CO)N1C(=O)Cc1ccccn1
  -5.0 | 1.2
CNC[C@@H]1Oc2cc(C#Cc3ccccn3)ccc2S(=O)(=O)N([C@@H](C)CO)C[C@H]1C
  12.3 | 12.7

A few values from the list.
`C[C@H](CO)N1C[C@H](C)[C@H](CN(C)C(=O)NC2CCCCC2)Oc2c(NC(=O)c3ccncc3)cccc2C1=O` in Vaccinia stage shows 19.9
`CNC[C@@H]1Oc2c(NS(=O)(=O)c3ccc(Cl)cc3)cccc2C(=O)N([C@@H](C)CO)C[C@H]1C` in Vaccinia stage Venus shows 2.2

Additional entries.
Screens in order – Vaccinia stage | Vaccinia stage Venus
C[C@H]1CN([C@@H](C)CO)C(=O)Cc2cc(NC(=O)Nc3ccc4c(c3)OCO4)ccc2O[C@H]1CN(C)C(=O)Nc1ccc(C(F)(F)F)cc1
  -2.1 | 8.3
CCC(=O)N1[C@H](CO)[C@H](c2ccccc2)[C@@H]1CN(CC1CC1)S(C)(=O)=O
  14.0 | -0.7
CC(C)CC#Cc1ccc2c(c1)O[C@@H](CN(C)Cc1cccc(F)c1)[C@H](C)CN([C@@H](C)CO)S2(=O)=O
  ? | /
O=C(C[C@H]1CC[C@H](NC(=O)C2CCOCC2)[C@H](CO)O1)Nc1ccc(-c2ccccc2)cc1
  -7.5 | -6.5
CC(C)NC(=O)Nc1ccc2c(c1)CC(=O)N([C@H](C)CO)C[C@@H](C)[C@H](CN(C)S(=O)(=O)c1ccc(Cl)cc1)O2
  1.5 | 1.4
C[C@@H]1CN([C@@H](C)CO)C(=O)Cc2cc(NC(=O)Nc3ccc4c(c3)OCO4)ccc2O[C@H]1CN(C)Cc1ccc(Oc2ccccc2)cc1
  -6.9 | -6.6
CO[C@@H]1CN(C)C(=O)c2cc(NC(=O)C3CC3)ccc2OC[C@@H](C)N(Cc2ccccc2)C[C@H]1C
  -19.7 | -10.6
C[C@H]1CCCCO[C@@H](CN(C)Cc2ccc3c(c2)OCO3)[C@@H](C)CN([C@@H](C)CO)C(=O)c2cc(NC(=O)Nc3ccc4c(c3)OCO4)ccc2O1
  ? | /
C[C@@H]1CN([C@@H](C)CO)C(=O)Cc2cc(NC(=O)Nc3ccccc3)ccc2O[C@@H]1CN(C)C(=O)Nc1ccc(F)cc1
  11.8 | 11.8
CC(C)NC(=O)Nc1cccc2c1O[C@H](CN(C)Cc1ccc(C(=O)O)cc1)[C@H](C)CN([C@H](C)CO)C2=O
  9.8 | 8.4
COc1ccc(NC(=O)N(C)C[C@@H]2Oc3ccc(NS(C)(=O)=O)cc3CC(=O)N([C@H](C)CO)C[C@@H]2C)cc1
  -1.0 | 0.5
CC(C)OC(=O)N(C)C[C@H]1OCc2ccccc2-c2ccccc2C(=O)N([C@@H](C)CO)C[C@@H]1C
  9.2 | 10.9
Cc1ccc(S(=O)(=O)N(C)C[C@H]2OCCCC[C@@H](C)Oc3ccc(NC(=O)Nc4ccc(C(F)(F)F)cc4)cc3C(=O)N([C@@H](C)CO)C[C@@H]2C)cc1
  -16.9 | -7.3
C/C=C/c1cnc2c(c1)C(=O)N([C@H](C)CO)C[C@@H](C)[C@@H](CN(C)Cc1cncnc1)O2
  37.7 | 19.6
CC(C)NC(=O)Nc1ccc2c(c1)C(=O)N([C@@H](C)CO)C[C@@H](C)[C@H](CN(C)S(=O)(=O)c1cccs1)OCCCC[C@@H](C)O2
  7.8 | 6.7

Shown as labelled records: two of the compounds above.
CO[C@@H]1CN(C)C(=O)c2cc(NC(=O)C3CC3)ccc2OC[C@@H](C)N(Cc2ccccc2)C[C@H]1C
  Vaccinia stage: -19.7
  Vaccinia stage Venus: -10.6

C[C@H]1CCCCO[C@@H](CN(C)Cc2ccc3c(c2)OCO3)[C@@H](C)CN([C@@H](C)CO)C(=O)c2cc(NC(=O)Nc3ccc4c(c3)OCO4)ccc2O1
  Vaccinia stage: ?
  Vaccinia stage Venus: /

Carrying on.
Screens in order – Vaccinia stage | Vaccinia stage Venus
COCC(=O)Nc1ccc2c(c1)C(=O)N(C)[C@H]1CC[C@H](CC(=O)N3CCc4ccccc4C3)O[C@@H]1CO2
  -0.2 | 3.2
C[C@H](CO)N1C[C@H](C)[C@@H](CN(C)C(=O)C2CCCCC2)OCCCC[C@H](C)Oc2ccc(NS(=O)(=O)c3ccc(Cl)cc3)cc2C1=O
  ? | /
CNC[C@@H]1Oc2c(NC(=O)c3nc4ccccc4s3)cccc2C(=O)N([C@H](C)CO)C[C@@H]1C
  13.9 | 8.2
CC(C)C#Cc1cnc2c(c1)C(=O)N([C@H](C)CO)C[C@H](C)[C@@H](CN(C)Cc1ccccc1F)O2
  -12.1 | -13.7
O=C(C[C@@H]1CC[C@@H]2[C@H](COC[C@H](O)CN2C(=O)c2cnccn2)O1)NCc1ccc(Cl)cc1
  15.4 | 7.7
COc1ccc(NC(=O)N(C)C[C@@H]2OCCCC[C@@H](C)Oc3ccc(NS(=O)(=O)c4ccc(Cl)cc4)cc3C(=O)N([C@H](C)CO)C[C@@H]2C)cc1
  2.6 | 4.7
COc1ccc(NC(=O)N(C)C[C@H]2Oc3c(NS(=O)(=O)c4cn(C)cn4)cccc3C(=O)N([C@H](C)CO)C[C@H]2C)cc1
  -1.7 | 5.3
COc1ccc(CN(C)C[C@H]2Oc3ccc(NC(=O)c4ccncc4)cc3CC(=O)N([C@@H](C)CO)C[C@@H]2C)cc1
  10.2 | 4.3
CCC(=O)N1CC(=O)N2[C@H](CO)[C@H](c3ccc(-c4ccncc4)cc3)[C@@H]2C1
  6.2 | -1.0
CCCN1[C@@H]2Cn3c(cccc3=O)[C@H]1[C@@H](C(=O)NC1Cc3ccccc3C1)[C@@H]2CO
  10.7 | 8.5
Cc1ccc(-c2ccc3c(c2)O[C@@H](CN(C)C(=O)C2CC2)[C@H](C)CN([C@H](C)CO)S3(=O)=O)cc1
  -3.9 | -10.0
C[C@H]1CN([C@@H](C)CO)C(=O)Cc2cc(N(C)C)ccc2O[C@H]1CN(C)S(=O)(=O)c1ccccc1
  13.8 | 5.0
COc1ccc(S(=O)(=O)N(C)C[C@H]2Oc3ccc(NS(C)(=O)=O)cc3C(=O)N([C@H](C)CO)C[C@@H]2C)cc1
  8.7 | 19.1
C[C@@H]1CCCCO[C@@H](CN(C)Cc2ccc(Cl)c(Cl)c2)[C@@H](C)CN([C@@H](C)CO)C(=O)c2cc(NS(=O)(=O)c3cccs3)ccc2O1
  ? | /
O=C(C[C@@H]1CC[C@H](NC(=O)Nc2ccc(C(F)(F)F)cc2)[C@@H](CO)O1)NCc1ccccn1
  -11.8 | -2.1
C[C@@H]1CN([C@H](C)CO)S(=O)(=O)c2ccc(C#CCN(C)C)cc2O[C@@H]1CN(C)Cc1ccccc1F
  -12.1&-33.0 | -4.6&-19.0
O=C(C[C@@H]1CC[C@@H]2[C@H](COC[C@@H](O)CN2Cc2ccc(Oc3ccccc3)cc2)O1)Nc1nccs1
  ? | /
COCCNC(=O)C[C@H]1C=C[C@H](NS(=O)(=O)c2ccc(C)cc2)[C@@H](CO)O1
  0.3 | 3.7
C[C@@H]1CCCCO[C@H](CN(C)S(=O)(=O)c2ccc(Cl)cc2)[C@H](C)CN([C@@H](C)CO)C(=O)c2cc(NC(=O)c3ccccc3)ccc2O1
  -7.2 | 2.3
O=C(C[C@@H]1CC[C@@H]2[C@H](COC[C@@H](O)CN2Cc2ccc(C(F)(F)F)cc2)O1)NCCc1ccccc1
  ? | /
Cc1cc(C(=O)Nc2ccc3c(c2)C(=O)N(C)[C@@H]2CC[C@H](CC(=O)N[C@H](C)c4ccccc4)O[C@H]2CO3)no1
  0.2 | 3.7
C[C@H]1CN([C@@H](C)CO)S(=O)(=O)c2ccc(-c3cncnc3)cc2O[C@H]1CN(C)Cc1ccccc1
  2.9 | 0.5
C[C@@H]1CN([C@@H](C)CO)C(=O)c2cc(NC(=O)C3CC3)ccc2O[C@H]1CN(C)CC1CCCCC1
  2.3 | 4.3
COc1ccc(-c2ccc3c(c2)O[C@H](CN(C)Cc2cccnc2)[C@@H](C)CN([C@@H](C)CO)S3(=O)=O)cc1
  ? | /
COc1ccc(CNC(=O)C[C@@H]2C[C@@H]3c4cc(NC(=O)NC5CCCC5)ccc4O[C@@H]3[C@H](CO)O2)cc1
  3.0 | 2.6
CC=Cc1ccc2n(c1=O)C[C@H]1[C@H](CO)[C@@H](C(=O)NCCC)N(C(=O)CC)[C@@H]21 (mixture of isomers)
  5.4 | 0.6
N[C@H]1CC[C@H](CCn2cc(C3CCCCC3)nn2)O[C@@H]1CO
  -3.9 | -10.5
C[C@@H]1CN([C@@H](C)CO)C(=O)c2cc(NC(=O)Cc3ccccc3)ccc2O[C@@H](C)CCCCO[C@@H]1CN(C)C(=O)c1ccncc1
  -3.0 | -3.9
C[C@@H]1CN([C@H](C)CO)C(=O)Cc2cc(NC(=O)Nc3ccccc3)ccc2O[C@@H]1CN(C)S(C)(=O)=O
  9.1 | 8.6
C[C@@H]1CN([C@@H](C)CO)C(=O)Cc2cc(NC(=O)C3CC3)ccc2O[C@H]1CN(C)C(=O)Nc1ccc(F)cc1
  5.7 | 9.4

The list continues.
canonical_smiles,Vaccinia stage,Vaccinia stage Venus
COCCNC(=O)C[C@H]1C[C@@H]2c3cc(NC(=O)Nc4ccccc4)ccc3O[C@@H]2[C@H](CO)O1,21.9,7.6
CO[C@H]1CN(C)C(=O)c2ccc(NS(=O)(=O)c3ccccc3Cl)cc2OC[C@@H](C)NC[C@@H]1C,7.3,4.5
C[C@H](CO)N1C[C@H](C)[C@@H](CN(C)CC2CCCCC2)OCCCC[C@H](C)Oc2ccc(NS(=O)(=O)c3ccc(F)cc3)cc2C1=O,?,/
CCCNC(=O)c1cc2c(c(-c3cccc(-c4ccncc4)c3)n1)[C@H](CCO)N(S(=O)(=O)CC)C2,-4.1,-9.9
C[C@H](CO)N1C[C@H](C)[C@H](CN(C)C)Oc2ncc(-c3ccncc3)cc2C1=O,14.3,5.8
C[C@H](CO)N1C[C@H](C)[C@H](CN(C)S(=O)(=O)c2cn(C)cn2)Oc2c(NC(=O)Nc3cccc4ccccc34)cccc2C1=O,-1.0,-3.2
C[C@H](CO)N1C[C@H](C)[C@@H](CN(C)C(=O)Nc2ccc(C(F)(F)F)cc2)Oc2c(NC(=O)C3CCOCC3)cccc2C1=O,6.8,11.8
C[C@@H]1CN([C@H](C)CO)C(=O)c2cc(NC(=O)Nc3ccc(F)cc3)ccc2O[C@@H]1CN(C)Cc1ccc(C(=O)Nc2ccccc2N)cc1,3.1,-3.4
COc1ccc(CN(C)C[C@@H]2Oc3ccc(NS(=O)(=O)c4ccc(C)cc4)cc3CC(=O)N([C@H](C)CO)C[C@@H]2C)cc1,-13.7,-12.1
O=C(C[C@@H]1CC[C@H]2[C@@H](COC[C@H](O)CN2C(=O)Nc2ccc(Cl)c(Cl)c2)O1)NCc1ccncc1,-22.2,-15.8
Cc1noc(C)c1S(=O)(=O)Nc1ccc2c(c1)CC(=O)N([C@H](C)CO)C[C@@H](C)[C@H](CN(C)Cc1ccc(C(F)(F)F)cc1)O2,-18.5,-21.7
CO[C@@H]1CN(C)C(=O)c2ccc(NC(=O)NC(C)C)cc2OC[C@@H](C)N(C(=O)CN(C)C)C[C@@H]1C,20.0,10.9
O=C(C[C@@H]1C[C@H]2c3cc(NC(=O)CC4CC4)ccc3O[C@H]2[C@H](CO)O1)NCCN1CCCCC1,5.1,3.8
CCC(=O)N1C[C@@H](O)COC[C@H]2O[C@H](CC(=O)NCC3CCCCC3)CC[C@@H]21,10.6,6.8
C/C=C/c1cnc2c(c1)C(=O)N([C@@H](C)CO)C[C@@H](C)[C@@H](CN(C)S(=O)(=O)c1cn(C)cn1)O2,25.4,15.7
C[C@@H]1CN([C@@H](C)CO)C(=O)Cc2cc(NC(=O)CCCCCC(=O)Nc3ccccc3N)ccc2O[C@@H]1CN(C)CC1CC1,12.4,3.0
CCCNC(=O)C[C@H]1CC[C@@H]2[C@@H](COc3ccc(NC(=O)Nc4cccc(C)c4)cc3C(=O)N2C)O1,1.6,0.9
